Ab BasE inh: blocks the Acinetobacter baumannii siderophore enzyme BasE; purified BasE, fluorescence polarization binding displacement; inhibition, % (test concentration not listed); actives 0.1% (n = 84,000); AID 485350;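 active means both replicates above 25% with normal brightness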;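 further: 0% = negative plate control signal and 100% = positive plate control signal; stock transfer was 100 nL into about 30 µL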
KSHV LANA nucl: LANA-nucleosome interaction inhibition; FITC-LANA1-23 / chicken nucleosome fluorescence polarization; hits give low values; AID 720717; actives 0.3% (n = 51,000); z-score (test concentration not listed);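 active means both repeat wells score below -2 in polarization z-score versus plate sample wells, excluding overly bright wells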;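 further: 100 nL library stock added to about 30 µL; numbers are from one replicate; some results filed as inactive read as strong as hits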
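System – purified chicken nucleosomes with FITC-labelled LANA N-terminal peptide (1-23) · Amount – 240 nM purified chicken nucleosomes (480 nM peptide binding sites), final · Also added – 50 nM FITC-LANA1-23 probe · Medium – TEN-BT buffer, pH 7.5 · Incubation – compound with peptide–nucleosome mix 10–45 min at room temperature · Detection – fluorescence polarization, ex 480 nm, em 535 nm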
* hit, by the source's call; · = not tested or not shown; & = joins results of further samples.

The line under a structure holds: Ab BasE inh, KSHV LANA nucl
> O=C(N/N=C/c1c(-c2ccccc2)nc2sccn12)c1cc(=O)[nH]c(=O)[nH]1
    1.4, ·
> CN(C)CC(=O)c1ccc(-c2ccccc2)cc1
    -2.4, 0.25
> N#Cc1ccc(C(=O)N/N=C/c2cn(CC(=O)O)c3ccccc23)c(F)c1
    -4.3, 1.1
> N#Cc1c2c(c(-n3cnc4ccccc43)n3c1nc1ccccc13)CCCC2
    34, -0.87
> Cc1cc(=O)[nH]c2ccc(S(N)(=O)=O)cc12
    -1.1, -0.53
> Cn1c(C(=O)N2CCC3(CC2)OCCO3)cc2c(=O)[nH]c3ccccc3c21
    -1.7, -1.2
> O=C(CN1C(=O)c2ccccc2C1=O)NN1C(=O)CSC1=S
    1.8, ·
> Cc1cccc(N2CCN(C(=O)C3=NNC(=O)CC3)CC2)c1C
    2.5, ·
> Cc1ccc(S(=O)(=O)c2nc(NCCCN3CCCC3=O)sc2Cl)cc1
    -1.4, ·
> O=C(Cn1cnnn1)N(CCc1ccccc1)c1nc(-c2ccccc2)cs1
    1.3, ·
> O=C(CSc1nnc(Cc2ccccc2)o1)N1CCNC1=O
    1.9, ·
> COc1ccccc1NCC(=O)NN=C1CCN(Cc2ccccc2)CC1
    1.3, ·
> CCC(=O)c1ccc(OCC(=O)NCCOc2ccccc2)cc1
    0.3, ·
> O=C(NCC1CCCCC1)c1n[nH]c(=O)c2ccccc12
    2.6, -2
> C#CC(C)(C)NC(=O)c1snnc1C
    -0.2, 0.76

For reference, part of the list above:
The line under a structure holds: Ab BasE inh, KSHV LANA nucl
> CCC(=O)c1ccc(OCC(=O)NCCOc2ccccc2)cc1
    0.3, ·
> O=C(NCC1CCCCC1)c1n[nH]c(=O)c2ccccc12
    2.6, -2
> C#CC(C)(C)NC(=O)c1snnc1C
    -0.2, 0.76

(listing goes on)
The line under a structure holds: Ab BasE inh, KSHV LANA nucl
> O=C(OCc1cc(=O)oc2cc(O)ccc12)c1cnccn1
    -4.6, ·
> O=C(c1ccno1)N1CCN(Cc2ccccc2)CC1
    2.9, ·
> CCOC(=O)C1=CN(c2ccc(OCC)cc2)C=C(C(=O)OCC)C1c1cccc(OC)c1
    0.2, ·
> CCOc1cc2[nH]c(=O)n(CCCCC(=O)N3CCN(Cc4ccccc4)CC3)c(=O)c2cc1OCC
    0.0, -1.1
> COc1ccc(-c2nnn(CC(=O)N(CC(=O)NCc3ccccc3)c3ccc4c(c3)OCCO4)n2)cc1OC
    -3.0, 0.89
> CCN(Cc1nc2cc(OC)c(OC)cc2c(=O)[nH]1)C(=O)CC1CC2CCC1C2 (stereo unspecified)
    4.0, ·
> C1=C[C@H]2c3ccccc3N[C@@H](c3cccc(OC4CSC4)c3)[C@H]2C1
    1.2, ·
> CC(C)c1ccc(-c2nnc(N)s2)cc1
    -2.5, ·
> CCC(=O)Oc1oc(-c2ccccc2)nc1C=Nc1ccccc1C
    2.0, ·
> CCCSc1ccc2nc(NC(=O)OC)[nH]c2c1
    1.3&-1.8, 0.05&0.46&-0.16&0.23
> CCN(CC)S(=O)(=O)c1ccc(N/N=C/C=C2/N(C)c3ccccc3C2(C)C)nc1
    3.8, ·
> N#Cc1ccc(COC(=O)c2ccc3noc(-c4ccccc4)c3c2)cc1
    0.5, ·
> NC(=S)CN1C(=O)c2ccccc2S1(=O)=O
    0.3, ·
> C=CCn1c(N)cc(=O)nc1SC(C)C(=O)Nc1cccc(Cl)c1 (stereo unspecified)
    -2.2, 0.02
> Cc1[nH]c(C)c(S(=O)(=O)NC2CCCc3ccccc32)c1C(=O)N1CCCC1 (stereo unspecified)
    -3.4, -0.37
> O=C(O)CC1SC(=O)N(c2ccccc2)C1=O (stereo unspecified)
    1.8, 0.12
> O=C(c1cccs1)N1CCC(Cc2ccccc2)CC1
    -0.2, 0.13
> CN(C)C(=O)COC(=O)c1ccccc1Sc1ccccc1C#N
    -0.3, ·
> O=C(Cc1ccc(-c2ccccc2)cc1)NCc1ccco1
    -0.4, ·
> C/C(=C\C(=O)NC1CC(C)(C)NC(C)(C)C1)NC1CC(C)(C)NC(C)(C)C1
    0.3, -1.1
> CC1CCCCN1CCNS(=O)(=O)c1ccc2c(c1)n(C)c(=O)c(=O)n2C (stereo unspecified)
    -1.6, 2.9
> CC1(CCC(=O)O)NNC(=S)NN1
    2.3, -1.5
> CCC(=O)Nc1cccc(NC(=O)CSc2nnnn2C(C)C)c1
    -1.6, -0.44
> CC(C)c1ccccc1C=NCC(=O)O
    4.1, -0.66
> COc1ccccc1Cn1cccc1C1=NC(C(C)C)CO1 (stereo unspecified)
    2.5, -0.91
> NC(=O)C1CN(C(=O)CSc2nnc(-c3cccnc3)n2-c2ccccc2)c2ccccc2O1 (stereo unspecified)
    0.4, ·
> CN(C)S(=O)(=O)c1cccc(COC(=O)c2ccc3c(c2)OCO3)c1
    1.4, ·
> NC(CN1CCOCC1)c1ccccc1 (stereo unspecified)
    -1.8, -0.006
> O=S1(=O)CCCCN1c1ccc(S(=O)(=O)N2CCCCC2)cc1
    3.6, 0.051
> O=S(=O)(Nc1nccs1)c1ccccc1
    9.1, ·

Whole records as entered above.
CC(C)c1ccccc1C=NCC(=O)O as listed: Ab BasE inh = 4.1; KSHV LANA nucl = -0.66
O=C(Cc1ccc(-c2ccccc2)cc1)NCc1ccco1 as listed: Ab BasE inh = -0.4; KSHV LANA nucl = ·
O=C(O)CC1SC(=O)N(c2ccccc2)C1=O (stereo unspecified) as listed: Ab BasE inh = 1.8; KSHV LANA nucl = 0.12

(cont.)
The line under a structure holds: Ab BasE inh, KSHV LANA nucl
> CCOC(=O)c1c(C)nc2cc(C)ccn12
    1.8, -0.4
> CCOC(=O)OC(C)OC(=O)C1N2C(=O)C(NC(=O)[C@H](N)c3ccccc3)C2SC1(C)C (stereo partly specified)
    ·, -1
> COC(=O)c1cc2cccc(OC)c2cc1OC
    -0.5, 0.81
> CC(=O)Nc1ccc(NC(=O)CSc2nccc(=O)[nH]2)cc1
    6.8, -0.84
> CCOC(=O)c1oc2ccccc2c1CN1c2cccc3cccc(c23)S1(=O)=O
    0.7, ·
> Cc1cc(C(=O)COC(=O)c2ccc(-n3cnnn3)cc2)c(C)n1-c1cccc(F)c1
    1.3, ·
> Cn1cccc1C1CCCN1CC(=O)NC(=O)NCc1ccccc1 (stereo unspecified)
    1.1, ·
> COc1cc(C(=O)OCC(=O)Nc2ccc(C)cc2)cc(OC)c1OC
    -0.4, ·
> Cc1cc(C(C)(C)C)ccc1OCC(O)CNC1CCC(O)CC1 (stereo unspecified)
    1.8, ·
> Cc1cc(NC(=O)/C=C/c2ccc(F)cc2)no1
    2.3, ·
> Clc1ccc(Cn2cc(/C=N/n3cnnc3)c3ccccc32)c(Cl)c1
    1.0, -0.24
> Cc1ccc(S(=O)c2snnc2-c2ccc(Cl)cc2)cc1 (stereo unspecified)
    ·, 2.6
> CCOc1ccc(-c2nc(CSCC(=O)N3CCc4ccccc43)c(C)o2)cc1
    3.3, -0.36
> Cc1cc(C)n(C(=O)C2CCCN2S(=O)(=O)c2ccc(Cl)cc2)n1 (stereo unspecified)
    1.0, -0.75
> Cc1nnc(SCC2=NN(c3nc4ccccc4s3)C(=O)C2)s1
    1.2, -1.4
> CCc1c(C)sc(NC(=O)c2cc(-c3cccs3)on2)c1C#N
    2.5, -1.3
> CCC(C(=O)NCc1ccccc1)N(C(=O)Cn1nnc(-c2cccs2)n1)c1ccccc1OC (stereo unspecified)
    0.7, -1.7
> COc1ccc2oc(=O)c(C(=O)NCc3ccco3)cc2c1
    0.5, -1.2
> O=C(Oc1ccc(-c2nnco2)cc1)c1ccc2ccccc2c1
    0.9, ·
> COc1ccccc1CC1(C)NC(=O)NC1=O (stereo unspecified)
    0.6, ·
> N#Cc1c(-c2ccccc2)nc(-c2ccccc2)[nH]c1=O
    ·, -0.74
> O=C(Cn1[nH]c(=O)c2ccccc2c1=O)NCC(c1ccco1)N1CCCC1 (stereo unspecified)
    3.5, ·
> O=C(NCCCN1CCN(c2cccc(Cl)c2)CC1)c1ccc(N2CCCS2(=O)=O)cc1
    1.2, ·
> CC(C)CCNS(=O)(=O)c1ccccc1
    -2.5, ·
> Cc1cc(SCC(=O)Nc2cccc(C#N)c2)nc2ccccc12
    -1.7, ·
> CNC(=O)CSc1nnc(-c2ccccc2)n1C
    1.9, -0.99
> O=C(COC(=O)C1CCCN1S(=O)(=O)c1cccc2nsnc12)c1ccco1 (stereo unspecified)
    2.3, ·
> CCOc1ccc(-n2c(O)c(C3=c4ccccc4=NC3=O)sc2=O)cc1
    1.4, ·
> Clc1ccnc(-c2ccccc2)n1
    2.7, -0.092
> O=C(COC(=O)c1n[nH]c(=O)c2ccccc12)NC1C2CC3CC(C2)CC1C3 (stereo unspecified)
    -1.1, ·
> COC(=O)c1ccc(CO/N=C(\N)c2c(-c3c(Cl)cccc3Cl)noc2C)o1
    1.4, 0.34
> O=C(CSCCN1C(=O)c2ccccc2C1=O)NCc1cccs1
    -1.2, ·
> CCOC(CNCc1ccco1)OCC
    0.0, ·
> COc1ccc(C(=O)Nc2cccc(NC(C)=O)c2)c(OC)c1
    -2.1, 0.058
> CC1CCN(C(=O)CN(CCc2ccccc2)S(C)(=O)=O)CC1
    0.2, -0.94
> CC(=O)NCCC(=O)Nc1ccc(-c2cn3ccsc3n2)cc1
    0.3, ·
> CCCCc1nnc(SCC(=O)Nc2ccccc2)n1CC
    -0.8, 0.58
> O=C(N=S1CCN(c2ncc(C(F)(F)F)cc2Cl)CC1)c1ccccc1
    -0.1, ·
> C=CC(C)(O)CC[C@]1(C)[C@H]2CC(=O)C=C(C)[C@]2(C)C[C@@H](O)[C@@H]1C (stereo partly specified)
    -0.3, 0.76
> O=C(OCCN1C(=O)c2ccccc2C1=O)c1ccc(Cl)cc1
    6.1, -0.36
> COCc1cc(Cl)nc(-c2ccccc2)n1
    ·, -0.87
> O=C(Cc1nncn1-c1ccccc1)c1ccc(O)cc1O
    33*, ·
> Cc1cc(N)c2ccccc2[n+]1CCCCCCCCCC[n+]1c(C)cc(N)c2ccccc21
    -92&-97, 2.3&2.1
> S=c1nc(-c2ccccc2)n(-c2ccccc2)[nH]1
    -0.9, ·
> O=C(O)CC(c1ccc(F)cc1)c1ccco1 (stereo unspecified)
    1.6, -0.027
> CC(C)(C)c1ccc(C(=O)Nc2c3c(nn2-c2ccc(Cl)cc2)CSC3)cc1
    3.4, ·
> C=CCNc1nc(C(=O)OCc2ccc(C#N)cc2)cs1
    -2.5, ·
> Cc1cc(C)cc(-n2c(C)cc(/C=C(\C#N)C(=O)Nc3ccccc3)c2C)c1
    -2.3, -0.06
> COc1ccc(CNC2=CC(=O)CC(C)(C)C2)cc1
    0.0, 1
> O=C(Nc1c2c(nn1-c1ccccc1)CSC2)C1CCCCC1
    4.0, 0.36
> CCC(C)c1ccc(NC(N)=S)cc1 (stereo unspecified)
    1.6, ·
> N#CCSc1nnc(-c2ccccc2)n1-c1ccccc1
    -1.0, 0.95
> O=S(=O)(NCc1ccccc1)c1cccc(Cl)c1
    1.5, ·
> O=S1(=O)C=CC2ON=C(c3c(Cl)cccc3Cl)C21 (stereo unspecified)
    0.7, 0.17
> COCCn1ccc2nc(C)c(C(=O)NCCC(C)C)cc2c1=O
    -0.6, -1.4
> O=S(=O)(c1ccc(F)cc1)N(Cc1ccc2c(c1)OCO2)c1ccc(F)cc1
    2.6, ·
> Cc1cc(C)nc(SCC(=O)OCC(=O)Nc2ccc3c(c2)CCC3)n1
    -6.9, ·
> O=S(=O)(NCc1ccccc1)c1cccs1
    -1.6, -0.58
> COCCn1c(SCC(=O)N2CCCCC2C)nc2sc(C)c(C)c2c1=O (stereo unspecified)
    0.9, 0.33
> Cc1[nH]c(=O)n(C(C)(C)C)c(=O)c1Br
    2.6, ·

Other records follow:
The line under a structure holds: Ab BasE inh, KSHV LANA nucl
> CC(C)CC(NC(=O)C1CCC(C)CC1)C(=O)Nc1ccc2c(c1)OCCO2 (stereo unspecified)
    1.7, -0.12
> CC(C)Cc1cc(C(=O)Nc2cccc(O)c2)no1
    -0.7, 0.2
> Cc1ccc(-c2nn(-c3ccccc3)c3[nH]c(C)cc(=O)c23)cc1
    1.5, ·
> CC(C)(C)c1ccc(C(=O)N2CCN(C(=O)C3CCCCC3)CC2)cc1
    1.5, -0.28
> Cc1cc(C(=O)Nn2cnnc2)cs1
    -0.5, -0.7
> O=S1(=O)N=CN(Cc2ccccc2)c2ccccc21
    0.0, -0.062
> COc1cccc(C(=O)N2CCN(C(c3ccccc3)c3ccccc3)CC2)c1OC
    1.4, 0.26
> CC(C)(C)OC(=O)Nc1ccc2c(c1)OCO2
    1.0, -1.3
> O=C(Nc1cc(OCC(F)(F)F)cc(OCC(F)(F)C(F)F)c1)c1cccnc1
    -0.5, 0.81
> CCOc1ccccc1-n1nnnc1SCC(=O)c1ccc[nH]1
    -0.3, ·
> Cc1cc2c(cc1S(=O)(=O)N1CCN(C3CCCCC3)CC1)n(C)c(=O)c(=O)n2C
    -0.3, 1.1
> CSc1ncnc2sc(C)cc12
    2.4, -0.89
> C[N+]1(C)CCCC(OC(=O)C(O)(c2ccccc2)c2ccccc2)C1 (stereo unspecified)
    1.7&-2.4, -0.35&-0.062&0.94
> N#Cc1cc2c(nc1SCC(=O)Nc1ccc(S(=O)(=O)Nc3nccs3)cc1)CCCC2
    0.6, 0.27
> C=CCCCCCCCCC(=O)[O-].C=CCCCCCCCCC(=O)[O-].[Zn+2]
    ·, -0.13

Compound activity as filed in PubChem BioAssay.

This is a subset. The share of hits here may be higher or lower than overall.
